Screens from PubChem.
Sfp inh – Sfp phosphopantetheinyl transferase inhibition. Potency, µM, inactives show max response, negative = inhibition, hits mostly inhibitors. Biochemical Sfp PPTase activity, qHTS. hit rate 3.5% among 310,000; active means well fitted inhibition curve with a large enough effect; inconclusive means small, poorly fitted or top-dose-only effect, or another doubt; inactive means no such curve, though single readings can be large or run the other way;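 further: the enzyme is Sfp with the accession as filed and its product quenches rhodamine fluorescence; potency means the concentration at half of the fitted maximal effect; 0% = enzyme reaction without inhibitor and -100% = no enzyme wells; top concentration of the series not given in the record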
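Compounds were incubated with enzyme (final 15 nM) for 15 min at room temperature before substrate addition started the reaction. Fluorescence at 525 nm excitation, 598 nm emission was recorded immediately and after 30 minutes.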
Menin MLL FP FL – menin-MLL binding inhibition, fluorescein peptide. Fluorescence polarization, fluorescein-MLL peptide displacement from menin. FP activity change, % at 61.4 µM. 290,000 tested, under 10 active; inconclusive = falling polarisation curve, or a change in total fluorescence; inactive = total fluorescence flat and polarisation flat or rising; no compound was filed as active; the % refers to the polarisation; negative = inhibition;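 further: % of control where 0% means no effect; inhibitors lower the polarisation; unlabelled MLL peptide was the positive control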
The depositor's hits bear a star; u = inconclusive; & = joins results of further samples; [ ] = another dose, or the depositor's remark. Some of the compounds tested (hit frequency here may not be typical).

SMILES	Sfp inh	Menin MLL FP FL
COCC1=C2c3ccccc3[C@H](C[N+](=O)[O-])C(C(=O)OC)(C(=O)OC)C[C@@H]2n2c(=O)n(-c3ccccc3)c(=O)n2C1	1%&-7%&-21%	1.8&-3.6&-16
CC(=O)OC1CCC2(C)C3CCC4(C)C(CC5CCCCC54C(C)=O)C3CC(=O)[C@@]2(O)C1 (some centres undefined)	2%	0.7
Cn1c(=O)c(CCc2ccccc2)nc2cnc(Nc3ccccc3)nc21	5%	u
Cc1cccc(-c2ccc(-c3cc(=O)oc4cc(C)cc(C)c34)cc2)c1	-14%	1.3[94.6 µM]
COCCNC(=O)[C@H](C)/C=C(\c1cccnc1)C(NC(=O)OCc1ccccc1)c1ccc(C(=O)OC)cc1 (some centres undefined)	13%	-0.4
CC(=O)[C@]1(O)CCC2C3CCC4=CC(=O)CC[C@@]4(C)C3CC[C@]21C (some centres undefined)	-1%	-2.2
Cc1noc(C)c1C(=O)N1CCC[C@@]2(CCN(C(c3ccccc3)c3ccccc3)C2)C1	-11%	-0.7
O=C(CCCCCN1C(=O)c2cccc3cccc(c23)C1=O)NO	4%	-0.9
O=C(Nc1ccc2ccccc2c1)C(=O)C1C(=O)Nc2ccccc21 (centres undefined)	-12%	1.4
CN(Cc1ccco1)c1cc(-c2ccccc2Cl)ncn1	-25%	12
N[C@@H]1C(O)OC(CO)C(O)C1O (some centres undefined)	19%	-1.2
CCCCc1nc2c(c3c1C[C@H](C)OC3)CN(C(=O)C1CC1)CC2	7%	0.2[11.7 µM]
CC12CCC=CC1C(c1ccc(Br)cc1F)N(Cc1ccccc1)C2=O (centres undefined)	u	5.2
Cn1c(=O)cnc2cnc(Oc3ccccc3)nc21	1%	0.7
Cc1ccccc1-c1cncnc1N1CCN(C)CC1	12%	-11
CC1=C(/C=C/C(C)=C\C=C\C(C)=C\C=C\C=C(C)\C=C\C=C(C)\C=C\C2=C(C)C[C@@H](O)CC2(C)C)C(C)(C)C[C@H](O)C1	u	7.7
COc1ccccc1-c1cncnc1Nc1ccccc1	-1%	4.6
Cc1noc(C)c1-c1cncnc1NCc1ccccc1	10%	0.8
CCOC(=O)OCC1OC(C#Cc2ccccc2)C=CC1Oc1cccc(N(C)C)c1 (centres undefined)	-5%	-0.1[11.7 µM]
C#CCCCCCCCCCCCC(O)CC(O)COC(C)=O (centres undefined)	-5%	1.4
CC(C)=CCc1c(O)cc(O)c2c1O[C@H](c1ccccc1)CC2=O	-5%	-20
CCNc1ncc2nc(-c3ccccc3)c(=O)n(CCOC)c2n1	5%	-2.7
C=C[C@@]1(C)CC[C@H](O)[C@H]2C(=O)CCC[C@@H]21	2%	-0.1
COc1c(O)c(O)cc2c1oc1c3cc(C)ccc3oc(=O)c21	79µM*	14
CC1=C(C)C[C@@]23CCCN2C(=O)CCC[C@H]3C1	-3%	4.6[138 µM]
N=C(N)c1ccc2cc(OC(=O)c3ccc(N=C(N)N)cc3)ccc2c1	12%&21%	0.0
CCCC(=O)Nc1c(I)cc(I)c(C[C@H](CC)C(=O)O)c1I	2%	1.1
CCCCCCCCCCCCCCCC(=O)NCC(=O)O	13%	-2.5
COc1ccc2c(c1)OCC(Cc1ccc(OC)c(OC(C)=O)c1)C2=O (centres undefined)	-8%	-0.5
COC(=O)/C=C/C1c2ccccc2C(OC)C1C (centres undefined)	2%	-0.6[11.7 µM]
Cc1noc(C)c1S(=O)(=O)N1CCc2nc(-c3ccccc3)c3c(c2C1)CO[C@@H](C)C3	-19%	4.3[11.7 µM]
NC(=O)NCC(N)C(=O)O (centres undefined)	-12%	-0.6
CC(=O)N1CCC2(CC1)CN(c1ccccc1)C2	6%	-4.6
COc1cccc(-c2cc(NCc3cccc(C)c3)ncn2)c1	-10%	0.5
COc1cccc([C@@H]2Oc3ccc(OC)cc3C(=O)[C@H]2OC(=O)NCCOc2ccccc2)c1	5%	1.7
C[C@@H]1Cc2ccccc2N1NC(=O)c1ccc(Cl)c(S(N)=O)c1 (some centres undefined)	13%	0.2[24.8 µM]
COc1ccc(C2/C=C\CN(CC3CCCCC3)C(Cc3ccccc3)C(=O)N2Cc2ccc(F)cc2)cc1 (centres undefined)	12%	1.7
O=C(Oc1ccccc1)N1CCC[C@@]2(CCN(c3ccccc3)C2)C1	-2%	-1.4
O=C(/C=C\C=C/c1ccc2c(c1)OCO2)N1CCCCC1	13%	-1.3[24.8 µM]
COc1ccc(CNc2ncnc3ccc(-c4ccc(C(=O)N(C)C)cc4)cc23)c(OC)c1	-6%	-0.9
Cc1noc(C)c1-c1nccc(NCc2cccs2)n1	13%	-0.8
Cc1nc2cncnc2n(Cc2ccccc2Cl)c1=O	10%	u
COC(=O)CC1c2ccccc2C=C(C2CC2)N1C(=O)OC (centres undefined)	-4%&-14%	-1.3
N#Cc1cccc(NC(=O)N2CCCC3(CCN(C(=O)c4cc(C(F)(F)F)cc(C(F)(F)F)c4)CC3)C2)c1	13%	-13
COC(C1CCCCC1)C(C)C(OCc1cccc(Br)c1)C(C)CO (centres undefined)	-1%	-2.0[11.7 µM]
CC1(COc2ccc(CC3SC(=O)NC3=O)cc2)CCCCC1 (centres undefined)	14%&23%&14%&18%	3.8&3.2
O=C1CCCC=C1[C@@H](O)CCOCc1ccccc1	1%	1.4[11.7 µM]
N#Cc1cccc(NC(=O)N2CCCC3(CCN(C(=O)c4ccco4)CC3)C2)c1	-2%	0.1
CC(C)CN1CC[C@@]2(CCCN(C(=O)c3ccco3)C2)C1	14%	-0.4
COc1ccccc1-c1ccc2ncnc(NCc3cnc(C)cn3)c2c1	-17%	7.7
CC(=O)N1CCC[C@@]2(CCN(c3ncccn3)C2)C1	15%	-2.5
COC(=O)C1=C(C(=O)OC)[C@@H]2N(C)c3ccccc3[C@@]23C[C@@H](CO)N(C(=O)c2cc(C)oc2C)C3=N1	13%	-2.2[11.7 µM]
CCCC(=O)Nc1ncnc2c1ncn2[C@@H]1O[C@H]2COP(=O)(O)O[C@@H]2[C@@H]1OC(=O)CCC	24%	-0.7[24.8 µM]
CN1CCN(c2nc(-c3cccc(NS(C)(=O)=O)c3)nc3ccccc23)CC1	2%	-1.0
CC[C@H](NC(C)C)[C@H](O)c1ccc(O)c(O)c1	-17%	-11[24.8 µM]
Cc1cccc(C)c1NC(=O)NC1=CCCN1C	20%	0.3
Cc1cnc(CNc2nc(-c3ccoc3)nc3ccccc23)cn1	1%	u
C=C[C@H](C)[C@](C)(O)c1ccccc1	2%	-4.2
CN(C)c1ncc2ncc(=O)n(C3CC3)c2n1	-1%	-1.2
CC[C@H](C)[C@H](NC(=O)[C@H](Cc1ccc(O)cc1)NC(=O)[C@H](Cc1cnc[nH]1)NC(=O)[C@H](CCCNC(=N)N)NC(=O)[C@H](CC(C)C)NC(=O)[C@H](C)NC(=O)[C@@H](N)CO)C(=O)N[C@@H](CC(N)=O)C(=O)N[C@@H](CC(C)C)C(=O)N[C@H](C(=O)N[C@H](C(=O)N[C@@H](CCCNC(=N)N)C(=O)N[C@@H](CCC(N)=O)C(=O)N[C@@H](CCCNC(=N)N)C(=O)N[C@@H](Cc1ccc(O)cc1)C(N)=O)[C@@H](C)O)[C@@H](C)CC	11%	0.0

Other structures follow.
SMILES	Sfp inh	Menin MLL FP FL
C#C[C@]1(OC(C)=O)CC[C@H]2[C@@H]3CCC4=C[C@@H](OC(C)=O)CC[C@@H]4[C@H]3CC[C@@]21C	-30%	5.3
COc1cc(O)cc(OC)c1OC	-4%	-6.7
O=C(c1cnccn1)N1CCC2(CC1)CCN(C(c1ccccc1)c1ccccc1)CC2	3%	4.0
COC/C=C/C1=CC2=CC(=O)C(C)(O)C(=O)C2=CO1 (centres undefined)	u	-0.1
N#Cc1cccc(NC(=O)N2CC[C@@]3(CCCN(C(=O)c4cnccn4)C3)C2)c1	17%	-1.8
COc1ccnc(CS(=O)c2nc3ccc(OC(F)F)cc3[nH]2)c1OC (centres undefined)	-69%	-0.5
CCN1CCCC1=O	6%&29%	-0.8&3.7
COc1ncc2nc(-c3cccs3)c(=O)n(Cc3cccs3)c2n1	11%	-10
CN(Cc1ccco1)c1ncncc1-c1cccc(NS(C)(=O)=O)c1	-11%	0.9
c1ccc(COC[C@@H]2CO2)cc1	-3%	4.9
CCCn1c(C)nc2c(NCCCCN(C)C)nc(C)nc21	18%	-0.7
COc1ccc(C2CC(c3ccccc3)Oc3c(C)ccc(C(C)C)c32)cc1 (centres undefined)	9%&-12%	-2.2&-9.8
COc1cc2oc(=O)cc(-c3ccc(-c4ccc(NC(C)=O)cc4)cc3)c2c(OC)c1OC	4%	3.3
c1ccc2[nH]c(NCCCc3cnc[nH]3)nc2c1	u	-4.1
CC1O[C@@H](Oc2c(-c3ccc(O)c(O)c3)oc3cc(O)cc(O)c3c2=O)C(O)C(O)C1O (some centres undefined)	-19%	-1.8
C[C@]12O[C@H](C[C@]1(O)CO)n1c3ccccc3c3c4c(c5c6ccccc6n2c5c31)CNC4=O	0%	3.3
COC(=O)CNC(=O)[C@@]1(C)C=C[C@@H](Cc2ccccc2)N1C(=O)OC	4%	-0.6
CC(C)CN1CCC2(CC1)CCN(C(=O)c1ccncc1)CC2	12%	2.0
O=C(O)CCc1ccc(NCc2cccc(Oc3ccccc3)c2)cc1	-17%	3.4
Cc1cnc(CNc2ccnc(-c3cccc(C#N)c3)n2)cn1	-17%	-2.8
O=C(N/N=C1/C[C@@H](O)[C@@H](O)[C@@H]2[C@H]3C(=O)N(c4ccc(F)cc4F)C(=O)[C@@H]3CC[C@H]12)OCc1ccccc1	-12%	-2.5[11.7 µM]
CN(C)c1ccc(-c2cncnc2Nc2ccc(F)cc2)cc1	u	1.0
CCOC(=O)[C@H](CCc1ccccc1)N[C@@H](C)C(=O)N1[C@H](C(=O)O)C[C@H]2CCCC[C@@H]21	10%	u
CCC/C=C(\CCC)C(NC(=O)c1cccs1)c1ccc(C(=O)OC)cc1 (centres undefined)	14%	-0.4
COC(=O)C1=C(C(=O)OC)[C@@H]2N(C)c3ccc(OC)cc3[C@@]23C[C@@H](C(=O)OC)N(S(=O)(=O)c2ccc(C)cc2)C3=N1	6%	-0.3[11.7 µM]
CC(=O)OCC(=O)[C@]1(O)C(C)CC2C3CCC4=CC(=O)C=C[C@@]4(C)[C@]3(F)C(O)C[C@@]21C (some centres undefined)	11%	1.8
O=S(=O)(c1ccccc1)N1CCC2(CCCN(c3ncccn3)C2)CC1	3%	0.9
CCC1=C2CC[C@H]3C(=O)N(C)C(=O)[C@H]3[C@H]2[C@@]2(C)C(=NCC(=O)OC)OC(=O)N2C1=O	15%	-5.0
CCCCCC(O)c1ccc([C@H]2CCC(=O)[C@@H]2CCCCCCC(=O)O)cc1 (some centres undefined)	3%	0.4
CC(=O)OC[C@H]1O[C@@H](O/N=C\[C@@H](C)[C@H](OCc2ccccc2)C(C)C)[C@H](OC(C)=O)[C@@H](OC(C)=O)[C@H]1OC(C)=O	5%	-0.6[11.7 µM]
Cc1ccccc1Nc1oc(-c2ccccc2)nc1-c1ccccc1F	-9%	-1.3
C[C@H](CO)NC(=O)[C@H]1C[C@@H]1[C@H](NP(=O)(c1ccccc1)c1ccccc1)c1ccccc1	-4%	4.9
COCCNc1ncnc2ccc(-c3ccc(C(=O)N(C)C)cc3)cc12	31%[activator]	1.0
COC(=O)NC(/C=C/c1ccccc1)[C@]1(C(C)=O)CCCC1=O (some centres undefined)	31%[activator]	2.0[11.7 µM]
COC(c1ccccc1Br)C(C)/C=C/CCO (centres undefined)	5%	-7.5[11.7 µM]
CC#C[C@@]1(O)CC[C@H]2[C@@H]3CCC4=CC(=O)CCC4=C3[C@H](c3ccc(N(C)C)cc3)C[C@]21C	11%	3.2[24.8 µM]
C/C(=C\C1CCCCC1)C(NC(=O)c1cccnc1)c1ccc(-c2ccccc2)cc1 (centres undefined)	22%	5.3
C=CCC(Nc1ccc(OC)cc1)(C(=O)OCC)c1ccccc1 (centres undefined)	9%	-11
Cc1cccc(C)c1NC(=O)[C@H](C)N	-1%	1.6[24.8 µM]
Nc1c2ccccc2nc2c(O)cccc12	12%	2.7[24.8 µM]
CC(=O)N[C@@H](CCCNC(=N)N)C(=O)N[C@H](CC1CCCCC1)C(=O)N[C@@H]1CCC2SC[C@@H](C(=O)N[C@H](CCCNC(=N)N)C(=O)N[C@H](Cc3ccc(Cl)cc3)C(N)=O)N2C1=O (some centres undefined)	-2%	0.0
COC(=O)NC(CCc1ccccc1)C(C(=O)OC)C(=O)OC (centres undefined)	-25%	-1.8
Nc1ncnc2c1ncn2CCOCP(=O)(O)O	8%	-4.0
COc1ccc(-n2c(=O)c(-c3cc(F)cc(F)c3)nc3cnc(N(C)C)nc32)cc1	9%	-0.5
O=C(Nc1cccc(Cl)c1)OCC#CCCl	u	u
